# Kir21 inh – blocks the mouse Kir2.1 inward-rectifier potassium channel. P35561. HEK293-Kir2.1, FluxOR thallium flux fluorescence; stronger effect = lower value. B-score at 10 µM. 310,000 tested, 0.85% active. AID 1672;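 active = fluorescence ratio B-score at or below minus 3 SD of library scores, with starting-brightness B-score within 2 SD, cut at about -4.2 in these data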;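 note: channel flux triggered by added potassium and thallium sulfate stimulus; B-score of peak minus minimum fluorescence over baseline after thallium stimulus; more negative B-score means stronger Kir2.1 block with less thallium influx; some compounds called inactive have numbers as strong as hits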
# Target sequence (P35561 whole entry, looked up): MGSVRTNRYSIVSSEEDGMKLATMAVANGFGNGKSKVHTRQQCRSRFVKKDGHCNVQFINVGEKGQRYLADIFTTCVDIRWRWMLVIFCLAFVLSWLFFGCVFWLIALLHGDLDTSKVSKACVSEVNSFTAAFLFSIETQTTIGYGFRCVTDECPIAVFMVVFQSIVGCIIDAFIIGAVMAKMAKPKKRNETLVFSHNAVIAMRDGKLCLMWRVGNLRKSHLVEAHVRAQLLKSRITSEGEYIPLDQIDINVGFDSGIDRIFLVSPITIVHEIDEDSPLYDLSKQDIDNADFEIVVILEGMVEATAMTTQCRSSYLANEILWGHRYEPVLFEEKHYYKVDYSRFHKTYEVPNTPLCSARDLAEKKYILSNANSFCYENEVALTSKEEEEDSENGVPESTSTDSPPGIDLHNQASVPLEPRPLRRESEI
# Numbers without * were called inactive. This is a subset, and most or all hits are left out here.
no.	molecule	Kir21 inh
1	O=C(NCc1ccccc1)C(c1ccccc1F)N(CC1CCCO1)C(=O)c1ccccn1 (centres undefined)	-0.87
2	CCC(=O)Nc1ccc(-c2csc(NNC(C)=O)n2)cc1	0
3	Cc1ccnc(SCC(=O)Nc2sc3c(c2C#N)CCC(C(C)(C)C)C3)n1 (centres undefined)	0.03
4	Cc1ccc(NC(=O)CCNS(=O)(=O)c2cccc3nonc23)cc1Cl	-0.83
5	O=C(NCC(c1ccco1)N1CCOCC1)c1cccc([N+](=O)[O-])c1 (centres undefined)	-0.04
6	COc1ccc(C)cc1NC(=O)c1c([N+](=O)[O-])cnn1C	0.01
7	O=C(NCc1cccc(C(F)(F)F)c1)C1CCCN(c2cnccn2)C1 (centres undefined)	-1.3
8	Cn1cccc1/C=C1\CCc2ccccc2C1=O	0.01
9	COc1ccc2[nH]c(=O)c(C(c3nnnn3CC3CCCO3)N3CCCCC3)cc2c1 (centres undefined)	-0.45
10	O=C(NCCCCc1ccccc1)c1ccc(Br)cc1	2.1
11	COc1ccc(CNC(=O)Nc2ccc(C)cc2C)cc1	-0.01
12	CN1CCN(C(=O)c2ccc(N3CCCC3=O)cc2)CC1	-0.8
13	CCn1c(SCC(=O)N2CCc3ccccc32)nnc1-c1ccncc1	0.67
14	COc1ccccc1C(=O)Nc1ccc(-c2nnc(SCC(=O)O)n2C)cc1	-0.01
15	COC(=O)c1cc(OC)c(OC)cc1NC(=O)Nc1ccccc1OC	0.51
16	CCOCCCn1cnc2c3cc(F)ccc3n(C)c2c1=O	-0.35
17	Cc1ccc(S(=O)(=O)N2CCC(=O)N(CCOC(=O)Nc3cc(C)cc(C)c3)CC2)cc1	0.6
18	O=C(COC(=O)Cn1cnc2ccccc21)Nc1ccc2c(c1)C(=O)c1ccccc1C2=O	0.54
19	CC1(C)Cc2c(sc(NC(=O)C(=O)N3CCCC3)c2C(N)=O)CO1	1.6
20	Cc1cc(N2CCOCC2)ccc1/C=C1\SC(=O)N(C(C)C)C1=O	0.93

no.	molecule	Kir21 inh
21	CNC(=O)c1nc(C)n(-c2cc(Cl)ccc2Cl)n1	0.64
22	COc1cccc(C(=O)NC2CC(C)(C)NC(C)(C)C2)c1OC	0.34
23	COc1ccccc1CNC(=O)CSc1ccc(Br)cc1	-0.52
24	CC(Sc1nc(-c2ccccc2)cc(C(F)(F)F)n1)C(=O)Nc1sc2c(c1C#N)CCC2 (centres undefined)	-0.31
25	Cc1cccc(N2C(=O)CC(Sc3ccccc3C(=O)O)C2=O)c1 (centres undefined)	1.6
26	Cc1cc(C)cc(N(C(=O)c2csnn2)C(C(=O)NC(C)(C)C)c2cccs2)c1 (centres undefined)	-1.4
27	Cc1ccc(OCc2nnc(SCC(=O)Nc3ccc4c(c3)OCCO4)n2Cc2ccco2)cc1	-0.87
28	CCOC(=O)C1C(c2ccccc2)NC(=S)NC1(C)O (centres undefined)	-1.8
29	Cc1onc(-c2ccccc2)c1C(=O)N/N=C/c1cc2c(cc1Cl)OCO2	-1.8
30	CSCCC(=O)N1CCC(n2nccc2NC(=O)CCCc2ccccc2)CC1	-1.5
31	Cc1ccc(Nc2cc(C)nc3nc(C)nn23)cc1	0.11
32	Cn1c(/C(C#N)=C/c2cccc(O)c2)nc2ccccc21	-1.7
33	N#CC(c1ccccn1)c1ncc(C(F)(F)F)cc1Cl (centres undefined)	-0.75
34	CCSc1nnc(NC(=O)CSc2c(Cl)cccc2Cl)s1	-0.91
35	CC(=O)Nc1ccc2c(c1)nc(C)n2Cc1ccccc1	-0.51
36	CN=C(c1ccccc1)c1c(C)cccc1C	-0.86
37	CCC[C@@H]1CCCO[C@@](C(=O)NCc2ccccn2)(C(F)(F)F)C1	-0.89
38	C=CCN1C(=O)c2ccccc2C1(O)Cc1ccccc1 (centres undefined)	-1.3
39	C=CCn1c(COc2cccc3ccc(C)nc23)nnc1SCC(N)=O	-0.73
40	Cc1nn(CC2CCCCC2)c(N)c1-c1ccccc1	0.19

no.	molecule	Kir21 inh
41	CCOc1ccc(N(C(=O)c2snc(C(N)=O)c2N)C(C(=O)NC2CCCC2)C(C)C)cc1 (centres undefined)	1.3
42	CC(=O)C1=C(c2ccccc2)OC(N)=C(C#N)C1c1ccccc1F (centres undefined)	-1.2
43	CCc1cc(=O)oc2c3c(cc(OCC(=O)N[C@H](C(=O)O)[C@H](C)CC)c12)OC(C)(C)CC3	-0.01
44	O=S(=O)(c1cc(Br)c(Cl)s1)N1CCCC1	-1.2
45	O=C(NCCCNC(=O)c1cnccn1)c1ccc(Cl)cc1	-0.62
46	FC(F)(F)c1cccc(NC(=S)N2CCN(c3cccc(C(F)(F)F)c3)CC2)c1	-0.88
47	CCN(CC)S(=O)(=O)c1cccc(-c2n[nH]c(=S)n2/N=C/c2ccc(OC(F)F)cc2)c1	-1.5
48	COC(=O)c1cccc(C23CC4(C2)[C@H](CN(Cc2ccc(C(F)(F)F)cc2)[C@@H]4c2ccccc2)C3c2ccc(Cl)nc2)c1 (some centres undefined)	2.5
49	Cc1nc2oc3ccccc3c(=O)c2c(=O)n1Cc1ccccc1	-0.52
50	Cc1ccc(C2=NN(C(=O)c3cccs3)C(c3ccccc3O)C2)cc1 (centres undefined)	-0.09
51	O=C(CCc1ccc(S(=O)(=O)NC2CCCCC2)cc1)N(Cc1ccccc1)Cc1ccccc1	-1.6
52	COc1ccccc1N(C(=O)CN1C(=O)c2ccccc2S1(=O)=O)C(C(=O)NCC1CCCO1)c1ccc(F)cc1 (centres undefined)	-0.92
53	CCC(C#CCN1CCOCC1)(CC)OCCC#N	-4.4
54	COc1ccc(Cl)cc1-c1nc(N)nc(NC2CCCCC2)n1	0.88
55	O=C(/C=C/c1ccccc1)c1ccccc1	0.04
56	S=c1nc(-c2ccccc2)n(-c2ccccc2)[nH]1	0.85
57	Nc1nc(SCC(=O)Nc2ccccc2Oc2ccccc2)n[nH]1	-2.2
58	O=C(NCCN1CCOCC1)c1c[nH]c2ccc(S(=O)(=O)N3CCOCC3)cc2c1=O	0
59	O=P(OC1CCCCC1)(OC1CCCCC1)C(O)c1ccccc1 (centres undefined)	-3.5
60	COc1ccc(OCC(=O)NCCNC(=O)c2ccccn2)cc1	-0.35

no.	molecule	Kir21 inh
61	CC1CN(C(=O)C(C)N2CCN(c3cccc(Cl)c3)CC2)CC(C)O1 (centres undefined)	0.38
62	CS(=O)(=O)Nc1ccc(S(=O)(=O)NC2CCCCC2)cc1	-0.02
63	CNC(=S)N/N=C/c1c(C)nn(-c2ccc(F)cc2)c1Cl	0.11
64	O=C(Nc1ccc(F)cc1F)NC1CC(=O)N(Cc2ccccc2)C1 (centres undefined)	-0.04
65	CC(C)c1cccc(C(C)C)c1NC(=S)Nc1cccc(Cl)c1	0.26
66	Cc1ccc2[nH]c3c(c2c1)CN(C(=O)CN1CCN(c2cccc(C)c2C)CC1)CC3	-0.96
67	CCN1C(=O)c2ccccc2S(=O)c2ccc(C(=O)NCc3ccccn3)cc21 (centres undefined)	-0.71
68	O=C(CCNS(=O)(=O)c1ccc(Cl)cc1)Nc1ccncc1	-0.73
69	Cc1ccc(CSCC(=O)N(C)CC(=O)Nc2ccc(Br)cc2C)cc1	-0.24
70	OCCC1CN(C2CCN(c3ccccc3F)CC2)CCN1Cc1ccccc1 (centres undefined)	-0.54
71	O=C(COc1ccccc1)Nc1ncccn1	-0.34
72	N#Cc1sc(C(N)=O)c(-c2ccccc2)c1-c1ccccc1	-0.04
73	Cc1ccc(NC(=O)Nc2ccnc(-c3cccnc3)n2)cc1	0.68
74	O=C(NNS(=O)(=O)c1ccccc1F)c1cc(-c2ccccc2)n[nH]1	-0.02
75	O=C(CC(=O)N/N=C/c1ccccc1)NCc1ccccc1	-0.49
76	O=C(Cc1cccs1)NCC1CCCO1 (centres undefined)	-0.72
77	CN(Cc1ccccc1)C(=O)COC(=O)c1ccc2c(c1)OCO2	1.2
78	Fc1ccc(NC(=S)N2CCCCC2)cc1	0.11
79	O=C(O)c1ccc(-c2nc3scc(-c4ccccc4)c3c(=O)[nH]2)cc1	1.4
80	S=C(c1ccccc1)N1CCN(C(=S)c2ccccc2)CC1	1.3

no.	molecule	Kir21 inh
81	Cc1csc2ncc(C(=O)N3c4ccccc4CC3C)c(=O)n12 (centres undefined)	0.81
82	CCC(C)NC(=O)CCCc1ccccc1 (centres undefined)	-0.26
83	O=C(Nc1nccs1)c1ccc(COc2ccccc2)o1	-0.04
84	COc1ccc(OC)c(S(=O)(=O)N2CCN(c3ncccn3)CC2)c1	-0.34
85	COP(=O)(OC)c1nc(-c2ccccc2)oc1NCc1ccccc1	-0.13
86	COc1ccc(CCNc2ccc(S(=O)(=O)N3CCN(C)CC3)cc2[N+](=O)[O-])cc1	-0.09
87	C=CCOC(=O)COc1ccc2c(C)c(C)c(=O)oc2c1C	0.36
88	COc1ccc(Cc2nc3ccccc3[nH]c2=O)cc1	0.13
89	Cc1ccc(C(=O)N2CCN(c3ccccc3Cl)CC2)cc1[N+](=O)[O-]	-1.9
90	CCOc1ccc(CCNC(=O)CCc2nnc3ccc(N4CCCC4)nn23)cc1OCC	-1.6
91	CN1CCN(c2ccccc2NC(=O)c2cccs2)CC1	-0.36
92	Cc1cc(=O)oc2c(CN3CCN(CCO)CC3)c(O)ccc12	-0.08
93	CC(=O)c1ccc(N2CCN(S(=O)(=O)c3c(C)[nH]c(C)c3C(=O)N3CCCC3)CC2)cc1	-0.28
94	O=C(CCC(=O)Nc1cccc2ccccc12)N/N=C/c1ccco1	0.88
95	CCn1nnnc1-c1ccc(OC)c(S(=O)(=O)NCc2ccccc2)c1	0.22
96	CN(/N=C/c1cccnc1)c1cnc2ccccc2n1	0.79
97	CCN1C(c2ccccc2)=C(c2ccccc2)S/C1=C\C=C1/SC(=S)N(C)C1=O	1.3
98	Cc1ccc(C(=O)OCC(=O)Nc2c(Cl)cc(S(N)(=O)=O)cc2Cl)o1	2.5
99	COc1ccc(/C=C(\NC(=O)c2ccco2)C(=O)N2CCCCC2)cc1	2.8
100	CS(=O)(=O)N1CCC(Oc2ccccc2C(=O)NC2CCOC2)CC1 (centres undefined)	0.34

# The closing 3 entries of the part above lead into the next.
no.	molecule	Kir21 inh
98	Cc1ccc(C(=O)OCC(=O)Nc2c(Cl)cc(S(N)(=O)=O)cc2Cl)o1	2.5
99	COc1ccc(/C=C(\NC(=O)c2ccco2)C(=O)N2CCCCC2)cc1	2.8
100	CS(=O)(=O)N1CCC(Oc2ccccc2C(=O)NC2CCOC2)CC1 (centres undefined)	0.34
101	COc1ccc(CN(C(=O)/C=C/c2ccco2)C2CCS(=O)(=O)C2)cc1OC (centres undefined)	0.1
102	COc1ccc2c(c1)nc(SCC(=O)c1cccs1)n2C	-0.09
103	CC(C)(C)NC(=O)CN(C(=O)c1snc(C(=O)NC2CCCCC2)c1N)c1ccccc1F	0.52
104	O=C(CCNC(=O)c1ccccc1)Oc1ccc([N+](=O)[O-])cc1	0.22
105	O=[N+]([O-])c1ccccc1S(=O)(=O)N(CC(O)CN1CCCCC1)c1ccccc1 (centres undefined)	0.08
106	O=c1[nH]c(-c2ccccc2)c(-c2ccccc2)[nH]1	-2.4
107	O=C(CSc1nccn1Cc1ccccc1)NCc1ccccc1	-3.9
108	CCOC(=O)c1c(NCC(C)C)c2ccccc2[nH]c1=O	-0.24
109	COc1ccc(OC)c(NC(=O)[C@@]2(CC(=O)O)CC(/C=C/c3ccccc3)=NO2)c1	-0.57
110	CCCCN(C(=O)NC(=O)Nc1c(C)cc(C)cc1C)S(C)(=O)=O	1.5
111	O=C(NC(=S)Nc1ccc(Cc2ccncc2)cc1)c1ccccc1F	-0.18
112	O=c1ccc(/C=C/c2ccccc2)nn1Cc1ccc(Cl)cc1Cl	0.01
113	CN(CC(=O)Nc1ccc(F)cc1)CC(=O)Nc1ccc(F)c(F)c1F	0.68
114	CCCCn1c(=O)c(CCC(=O)OCC(=O)Nc2cc(Cl)ccc2OC)nc2ccccc21	0.07
115	CC(C)(C)c1ccc(/C=C/C(=O)NCCCN2CCOCC2)cc1	-1.6
116	O=C(Oc1ccc2ccc(=O)oc2c1)c1cccs1	0.54
117	CCC(C)NC(=O)c1ccc2nc(-c3ccc(OC)c(OC)c3)c(-c3ccc(OC)c(OC)c3)nc2c1 (centres undefined)	2
118	CC(C)CCNC(=O)C1CCCN(S(=O)(=O)c2ccc3c(c2)CC(C)N3C(=O)C2CC2)C1 (centres undefined)	1.9
119	Nc1nn(S(=O)(=O)c2ccccc2)cc1-c1cccc([N+](=O)[O-])c1	-0.94
120	C/C(=N/OC(=O)c1ccc(F)cc1)c1ccc(C)cc1	1.6

no.	molecule	Kir21 inh
121	O=c1cc(-c2ccccc2)cc(-c2ccccc2)n1CCO	-0.8
122	Cc1ccc2cc(C#N)c(NCCNC(=O)C3CCC3)nc2c1C	0.37
123	CCOC(=O)C1(Cc2cccc(OC)c2)CCN(Cc2cccc(OCC)c2O)CC1	-2.9
124	CCC(C)(C)n1nnnc1C(c1cc2cc3c(cc2[nH]c1=O)OCO3)N1CCN(C)CC1 (centres undefined)	-0.39
125	CCOC(=O)c1sc2nc(SCC(=O)NCc3ccco3)n(Cc3ccccc3)c(=O)c2c1C	-0.38
126	Cc1ccc(NC(=O)c2c(C)nc(Nc3nc4ccccc4o3)nc2C)cc1	0.29
127	C=CCn1c(SCc2nc(N)nc(N3CCCCC3)n2)nnc1-c1ccco1	-0.97
128	COc1ccc(/C=C2\N=C(C(C)(C)C)OC2=O)c(OC)c1	0.74
129	CCOCCCn1cnc2c([nH]c3cc(OC)ccc32)c1=O	0.02
130	CCC(C)(C)NC(=O)C(OC(=O)c1ccco1)c1ccc(OC)cc1 (centres undefined)	-1.9
131	COc1cc(/C=C2/SC(=O)NC2=O)ccc1OCc1ccccc1	1.4

# Compounds 121 to 125 of the list above:
no.	molecule	Kir21 inh
121	O=c1cc(-c2ccccc2)cc(-c2ccccc2)n1CCO	-0.8
122	Cc1ccc2cc(C#N)c(NCCNC(=O)C3CCC3)nc2c1C	0.37
123	CCOC(=O)C1(Cc2cccc(OC)c2)CCN(Cc2cccc(OCC)c2O)CC1	-2.9
124	CCC(C)(C)n1nnnc1C(c1cc2cc3c(cc2[nH]c1=O)OCO3)N1CCN(C)CC1 (centres undefined)	-0.39
125	CCOC(=O)c1sc2nc(SCC(=O)NCc3ccco3)n(Cc3ccccc3)c(=O)c2c1C	-0.38
